Bioassay records deposited in PubChem BioAssay by several laboratories.
RN4220 kill = growth inhibition of S. aureus RN4220, primary screen, OD600. inhibition, % (no concentration beside the values). 16 h. actives 0.33% (n = 330,000);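 active = z-score of -3 or lower and OD600 up to 0.18 on both plates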;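 also: plate controls were untreated cells for no effect and reference antibiotic for full effect; stock transfer was 100 nL into about 80 µL; one replicate is shown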
PrP 5UTR inh = inhibition of PrP 5' UTR reporter expression | cell-based PrP 5' UTR mRNA reporter, plate reader | inhibition, % (test concentration not listed) | actives 0.35% (n = 340,000);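 active = every replicate at 50% or more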;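 also: 0 = median of the neutral control wells; tested in H4 reporter cells; numbers are from one replicate; inactives centre near -14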
BJeLR viability = MLPCN primary cell-based screen for lethality selective to Ras in HRASV12 cells | BJeLR (HRASV12) viability, CellTiter-Glo ATP luminescence, 48 h; reference of the scale not given here | inhibition, % (test concentration not listed) | actives 0.17% (n = 300,000) | AID 1554, 2009;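 active = replicate mean above 50%; inconclusive = above 50% but judged a plate artefact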;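 also: 50 nL library stock added to about 25 µL; numbers are from one replicate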
Sa ugtP lethal = growth inhibition of ugtP-null S. aureus, primary screen, RN4220 ugtP deletion, OD600; 16 h; some inactives read as strong as hits; growth inhibition, % (test concentration not listed); actives 0.54% (n = 330,000);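 active = z-score under -3 and OD600 up to 0.15 on both plates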;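 also: plate controls were untreated wells for no effect and antibiotic for full effect; wells of about 80 µL received 100 nL stock; the first replicate is given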
Bead autofluor = flagged as autofluorescent in microsphere protease counterscreen; compound autofluorescence counterscreen, microsphere flow cytometry; active compounds read high; fluorescence intensity (concentration not given with the values); actives 3.1% (n = 360,000); AID 624483;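 active = at least 3 SD above the mean of all compounds, about 16000 in these data; inconclusive = too few beads counted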;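 also: 100 nL of 1 mM stock went into each well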
Mtb hypoxia inh = PubChem AID 1159583; M. tuberculosis hypoxia-regulated fluorescent reporter, fluorescence; fluorescence inhibition, % (no concentration beside the values); actives 0.1% (n = 300,000);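 active = 35 to 45% if threefold the growth effect, above 45% if 1.5-fold the growth effect; inactive = the rest, general growth blockers included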;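 also: wells of about 50 µL received 100 nL stock; 0% = vehicle wells and 100% = reference inhibitor wells; whole bacteria with a GFP reporter of the hypoxia response; strong numbers were not always called active; many hits fall short of the cut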
Mtb hypoxia inh growth = further read-out of Mtb hypoxia inh, marked with its call; growth inhibition, %; measured here: M. tuberculosis growth (absorbance);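 0% = vehicle and 100% = reference antibiotic; read after six days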
Starred values were filed as active, the others as inactive; u = inconclusive; x = no result given; & = joins results of further samples.

Sample of the layout (5 entries):
SMILES	RN4220 kill	PrP 5UTR inh	BJeLR viability	Sa ugtP lethal	Bead autofluor	Mtb hypoxia inh	Mtb hypoxia inh growth
Cc1ccc(S(=O)(=O)N2CCCCC2)cc1NC(=O)c1cc(=O)[nH]c2ccccc12	5.5	1	x	2	4655	3	0
CCOc1ccccc1NS(=O)(=O)c1ccc2[nH]c(=O)[nH]c2c1	0.2	2	-12	3	3309	-4	1
CN(Cc1ccon1)C(=O)CC1C(=O)NCCN1CC(C)(C)C (stereo not drawn)	3.9	-9	4	3	4459	6	-4
O=C1CC(c2ccccc2)CC(O)=C1C=NCc1ccccc1 (stereo not drawn)	4.0	-13	1	-1	13084	-2	-2
CC1CCC(NC(=O)CCC(=O)N2CC(C)Oc3ccccc32)CC1 (stereo not drawn)	-0.2	-33	-5	2	5645	x	x

This part in full, repeating the preview:
SMILES	RN4220 kill	PrP 5UTR inh	BJeLR viability	Sa ugtP lethal	Bead autofluor	Mtb hypoxia inh	Mtb hypoxia inh growth
Cc1ccc(S(=O)(=O)N2CCCCC2)cc1NC(=O)c1cc(=O)[nH]c2ccccc12	5.5	1	x	2	4655	3	0
CCOc1ccccc1NS(=O)(=O)c1ccc2[nH]c(=O)[nH]c2c1	0.2	2	-12	3	3309	-4	1
CN(Cc1ccon1)C(=O)CC1C(=O)NCCN1CC(C)(C)C (stereo not drawn)	3.9	-9	4	3	4459	6	-4
O=C1CC(c2ccccc2)CC(O)=C1C=NCc1ccccc1 (stereo not drawn)	4.0	-13	1	-1	13084	-2	-2
CC1CCC(NC(=O)CCC(=O)N2CC(C)Oc3ccccc32)CC1 (stereo not drawn)	-0.2	-33	-5	2	5645	x	x
CCC(=NNC(=O)CSCc1ccccc1Br)c1ccc2c(c1)OCCO2	-6.3	x	x	3	x	1	2
Cc1nn(Cc2cccc(C(=O)NC(C)c3ccc(C(C)(C)C)cc3)c2)c(C)c1[N+](=O)[O-] (stereo not drawn)	31	-47	-8	11	10254	3	9
CCN1CCc2c(sc(NC(=O)c3ccc(S(=O)(=O)N4CCOCC4)cc3)c2C(N)=O)C1	-11	-19	11	-4	5510	9	11
CNc1nc(-c2ccccc2)cc(-c2ccccc2)n1	5.4	-8	13	-4	3837	11	2
O=C(Nc1cccc([N+](=O)[O-])c1)c1ccc(N2CCCC2=O)cc1	4.1	-47	6	8	6780	13	9
Cc1ccc(Nc2c(-c3ccco3)nc3nc(C)cc(C)n23)cc1	4.2	-6	3	1	2723	9	2
O=C(CCS(=O)(=O)c1ccc(F)cc1)N1CCN(c2ccccc2)CC1	2.2	-40	10	5	5110	15	6
CC(C)c1ccc(NC(=O)CC2Oc3ccccc3NC2=O)cc1 (stereo not drawn)	0.9	-19	-4	5	4378	15	5
O=c1nccc(Nc2ccccc2)[nH]1	2.6	-10	6	9	5036	5	-5
CCN(CC)C(=O)C(=O)c1c(-c2ccccc2)[nH]c2ccccc12	4.8	-19	-18	3	10771	1	5
O=C(COC(=O)c1ccc(Br)o1)Nc1ccc(S(=O)(=O)N2CCCC2)cc1	2.7	-24	-15	5	3016	17	9
COc1ccc(-c2c(C#Cc3ccsc3)c3cc(Br)ccc3n2C)cc1	3.4	-6	x	-9	3593	15	12
O=C(NN=Cc1cccs1)c1cc(C2CC2)nc2ccccc12	0.8	x	x	5	x	1	2
O=C(Cn1cncn1)NCCCc1ccccc1	-4.9	-1	7	-3	3313	-3	-2
CN(C)c1ccc(C(CNC(=O)c2ccc(-c3ccccc3)cc2)N2CCOCC2)cc1 (stereo not drawn)	x	-1	5	x	5976	x	x
COc1ccc(C(=O)C2CC2)cc1	6.3	-9	x	2	2966	0	5
COc1ccccc1C1=CC(=O)CCC1	8.3	-9	-9	0	3792	23	13
Cc1cccc(C(=O)NNC(=O)c2ccc(Br)cc2)c1	9.3	-45	-9	5	4034	6	0
CCCCCCCn1c2c(c(=N)c3c1CCC3)CCCC2	11	0	10	99*	4307	x	x
COc1ccccc1N(CC(=O)NC1CCCCC1)C(=O)CCC(=O)Nc1ccccn1	-4.2	-12	-1	-7	4968	x	x
CC1(c2nnc(-c3ccccc3)o2)CC(c2c(Cl)cccc2Cl)=NO1 (stereo not drawn)	x	-4	9	x	2998	x	x
CCc1nn(CCCC(=O)NCc2ccccc2C)c(=O)c2cc3occc3n12	4.6	10	3	-2	5624	-5	6
COc1cc(C(=S)N2CCCC2)ccc1OCC(N)=O	1.8	-12	4	9	4003	7	0
COc1cc(/C=N/NC(=O)COc2cccc(F)c2)ccc1OS(=O)(=O)c1ccc(C)cc1	x	-18	-5	x	1978	x	x
O=C(Nc1ccccc1N1CCCC1)c1cccc(S(=O)(=O)N2CCOCC2)c1	2.9	-11	6	9	x	-1	-4
O=C(O)C1CC(O)CN1S(=O)(=O)c1ccc2ccccc2c1 (stereo not drawn)	2.3	-10	x	3	4020	9	-5
COc1cccc(CN2CCN(S(=O)(=O)c3ccc(Cl)s3)CC2)c1	x	10	8	x	6125	x	x
O=C(Cc1ccccc1)N1CCC(c2ccccc2)C1 (stereo not drawn)	5.9	-45	2	13	5030	4	8
C/C(Cn1nc([N+](=O)[O-])cc1C)=N\NC(=O)c1ccc(O)cc1O	x	-13	-3	x	2751	x	x
O=C(COC(=O)c1cccc(Cl)c1Cl)NCCN1C(=O)CSC1=O	4.7	-16	-6	-2	2104	0	5
Cc1cc(N2CCCC2)nc(-c2ccccc2O)n1	-9.6	-33	-3	-10	2586	5	15
CC(=O)c1ccc(N/C=C\C(=O)c2ccc(C)cc2)cc1	x	-68	4	x	2292	x	x
CCN(CC(=O)Nc1c(F)cccc1F)C(=O)C1CCC1	1.2	-13	4	1	5495	-4	11
Cc1sc(NC(=O)Cc2ccc3c(c2)OCO3)nc1-c1ccc2c(c1)CCN2C(=O)c1ccccc1F	1.5	3	19	-26	8287	-9	-4
O=C(c1ccc(Cl)s1)N1CCN(c2nc3ccccc3s2)CC1	1.1	-22	-4	4	5772	x	x
COc1cc(CNc2ccc(N3CCCC3)cc2)cc(Cl)c1OC	0.6	-61	3	12	2505	8	2
Cc1nn(C)c(C(=O)NN=Cc2cccnc2)c1Br	-1.9	x	x	-1	x	-4	4
Cc1noc(N)c1C(=O)Nc1ccc(F)cc1	3.5	-17	5	16	2352	x	x
CCCn1nc(C(=O)Nc2cc(C(=O)OC)ccc2C)c2ccccc2c1=O	5.0	-2	8	4	8276	-1	-1
Cn1c(=O)[nH]c(=O)c2c1nc(CN1CCN(c3cccc(Cl)c3)CC1)n2Cc1ccccc1Cl	3.9	-9	0	3	6143	-5	-4
CN(C)CCCNCCCNC(=O)c1ccco1	1.4	-26&-32	0	3	3881	-1	7
Cc1ccc(C(=O)NCC(=O)OCC(=O)Nc2cc(C)c(C)cc2[N+](=O)[O-])cc1	3.1	-16	1	4	1989	13	4
COc1ccc(-c2nc(SCC(=O)N3CCCC3)n[nH]2)cc1	1.3	-20	-1	1	5345	2	7
O=C(COc1cccc2cccnc12)NNC(=O)Nc1ccccc1	3.7	-13	0	5	4696	9	9
S=C(NNC(=S)NC1CC2C=CC1C2)NC1CC2C=CC1C2 (stereo not drawn)	5.1	-33	-5	6	u	9	5
The list goes on:
SMILES	RN4220 kill	PrP 5UTR inh	BJeLR viability	Sa ugtP lethal	Bead autofluor	Mtb hypoxia inh	Mtb hypoxia inh growth
COc1ccccc1N1CCN(C(=O)c2cc3c(C)nc4ccccc4c3o2)CC1	3.9	-20	-1	-5	5330	-3	14
CCOC(=O)c1cc(S(=O)(=O)Nc2cccc(OC)c2)cn1C	2.7	-4	11	0	5020	8	10
Cc1ccc(N(C)N=Cc2ccc(Cl)cc2Cl)nn1	19	x	x	15	x	-5	8
COc1ccc(C=Nn2cncn2)cc1Cn1nc(C)c([N+](=O)[O-])c1C	2.0	x	x	-2	x	-4	-6
Cc1cc(=O)oc2cc(OCC(O)CN3CCc4ccccc4C3)ccc12 (stereo not drawn)	x	-4	2	x	2820	x	x
COc1ccc(CNC(=O)c2cc(-c3ccccc3O)n[nH]2)cc1	2.4	-26	-5	-4	9563	8	6
Cc1cc(C)n2nc(S(=O)(=O)N(C)c3ccccc3)nc2n1	3.6	-19	-6	-3	4418	x	x
CCOC(=O)c1cnc2ccc(F)cc2c1Nc1ccc2c(c1)OCCO2	-4.3	-1	-5	-9	2016	-5	9
CC(=O)Nc1nc(SCC(=O)NCC2CCCO2)[nH]c(=O)c1NC(=O)c1cccs1 (stereo not drawn)	4.7	-28	4	13	2050	3	11
O=C(c1ccc(-n2cnnn2)cc1)N1CCN(C(c2ccccc2)c2ccccc2)CC1	0.1	-12	-3	5	2808	8	8
O=C(C1=C[C@H](C2CCCCC2)C[C@H](OCCCCO)O1)N1CCOCC1	x	-7	4	x	3030	x	x
COc1ccc(C(=O)N(Cc2cccs2)C2CCS(=O)(=O)C2)cc1 (stereo not drawn)	4.9	-21	0	8	4376	4	-3
CCOC(=O)C1CCN(Cc2ccc(F)c(Br)c2)CC1	3.0	-28	-4	-1	20738*	2	-4
CC(C)Cn1c(=S)[nH]c2ccccc2c1=O	4.6	-18	1	-2	4358	19	-2
C=CCn1c(SCC(=O)Nc2ccccc2CC)nnc1-c1ccncc1	-1.0	-28	5	-2	23141*	7	12
CC(C)NC(=O)Nc1ccc2c(c1)C(=O)N(C(C)CO)CC(C)C(CN(C)S(=O)(=O)c1ccccc1)O2 (stereo not drawn)	-2.1	x	x	-4	x	-2	0
CNS(=O)(=O)c1cc(OCC(N)=O)c(C)cc1Cl	0.0	-14	16	-4	3535	12	3
CCCCOc1ccc(C)cc1CN(CCO)CCO	6.3	-16	-5	4	8294	-3	0
Cc1c(NC(=S)N/N=C/c2ccc(N(C)C)cc2)c(=O)n(-c2ccccc2)n1C	x	-10	7	x	2433	x	x
Cc1c(N=NC2=C(O)CC(C)(C)CC2=O)cc2c(c1[N+](=O)[O-])C(C)(C)CC2(C)C	3.3	10	-2	7	3606	2	16
O=C(CN1C(=O)c2ccccc2C1=O)N1CCN(c2ccccn2)CC1	-0.6	x	-2	1	8067	11	6
Cc1ccc2nc(NC(=O)C3CC3C)sc2c1 (stereo not drawn)	0.9	-57	-3	-3	3695	-12	1
N#CC(c1ccc(=O)[nH]n1)c1ccc(Cl)cc1Cl (stereo not drawn)	3.1	-19	-5	6	3287	-4	-4
Cc1ccc2[nH]c(=O)c(CN(CCCN(C)C)C(=O)Nc3ccc(F)cc3)cc2c1	6.6	-25	-9	15	3226	-4	-7
Cc1ccc(-c2cc(-c3ccc(C)cc3O)[nH]n2)cc1	-11	-56	2	55	4723	9	5
CCCc1cc(=O)[nH]c(SCc2cc(=O)oc3cc(C)c(C(C)C)cc23)n1	11	-2	4	-20	2051	0	2
CC(C)(C)c1cc(C(=O)O)n[nH]1	5.9	-26	9	4	12437	18	5
COC(=O)c1c[nH]n2c(=O)c(C(C)C)c(C)nc12	3.3	-26	4	4	4433	13	24
O=C(Nc1nnc(SCc2cccc(F)c2)s1)c1ccco1	1.2	-13	-14	1	4075	0	2
Cc1cccc(/C=C/c2onc(C)c2S(=O)(=O)N2CCC(C(=O)N3CCCCCC3)CC2)c1	-6.2	-7	2	-10	5752	-9	-2
Cc1ccc(S(=O)(=O)CC(=O)N(CCCN(C)C)c2nc3ccc(C)cc3s2)cc1	2.4	-13	6	-4	u	1	-3
Cc1cc(/C=C(\C#N)C(=O)OCC#N)c(C)n1CC(C)C	4.9	-8	5	8	4334	-2	5
O=C(c1ccc(F)c(F)c1)N1CCC2(CC1)NCCc1[nH]cnc12	-0.5	7	2	-4	5321	3	14
CCN(CC(=O)Nc1c(F)cccc1F)C(=O)C1CCN(S(=O)(=O)c2ccc(C)c(C)c2)CC1	0.9	-2	1	1	5712	3	5
CCN(CC)CCN(Cc1cc2cc(C)ccc2[nH]c1=O)C(=O)Nc1ccccc1OC	-11	-6	5	2	2919	5	10
CN1C(=O)C(N=Nc2ccc([N+](=O)[O-])cc2)SC1=S (stereo not drawn)	22	-18	x	14	4082	9	5
COc1ccccc1CNC(=O)CN(c1ccc(C)cc1)S(=O)(=O)c1c(C)noc1C	-3.6	-7	0	1	5227	7	12
